A647 fluor – compound autofluorescence in A647 spectral region | Compound fluorescence, A647 channel (570/671 nm), Tris buffer | max dye-equivalent concentration, M | 59,000 tested, under 10 active | AID 592; active means above 1 µM dye equivalent; inconclusive means 0.1 to 1 µM; inactive means 0.1 µM or less;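 further: values scaled relative to a standard on each plate; highest value over a series up to 38 µM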
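Buffer was dispensed, compounds and Alexa 647 standards were pin-transferred, and plates sat 15 min at room temperature. Intensity at 570/671 nm was then converted to dye-equivalent concentration using the plate's A647 standard curve.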
AID923 – qHTS Assay for Allosteric/Competitive Inhibitors of Caspase-1: Spectroscopic Profiling in AFC Spectral Region; 75,000 tested, 1.1% active; Potency, µM (doses to about 57.5 µM), without a hit: at the highest dose fluorescence increase, usual class: activators; AID 923, 2007; compound fluorescence, AFC spectral region (405/520 nm); almost no hit is shown here; active means well fitted activation curve with a large enough effect; inconclusive means small, poorly fitted or top-dose-only effect;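 further: potency means the concentration at half of the fitted maximal effect; 0% is about no effect; scaled to a free AFC standard on each plate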
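Titrations up to 57 uM read every 20 sec for 3 min (405/520 nm) with 50 nM caspase 1 and 5 uM Ac-WEHD-AFC, pH 7.5 HEPES buffer. Fluorescence-vs-time intercept gave baseline, scaled against on-plate AFC standard.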
A488 fluor – A488 region autofluorescence. compound autofluorescence, A488 spectral region, dye equivalency; active compounds read high. max dye equivalency, M. 59,000 tested, 0.1% active. AID 591; active = above 10 nM dye equivalent; inconclusive = 1 to 10 nM; inactive = 1 nM or less; about half of its hits are not listed in these tables;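 further: highest value over a series up to 38 µM; compound alone in buffer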
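Readout is A488 dye-equivalent concentration, calibrated by a per-plate six-point Alexa 488 series. Compounds in 100 mM Tris buffer pH 8.0 were incubated 15 min at room temperature. Plates were imaged using 480 nm excitation/540 nm emission filters.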
TSHR ag – activates the human thyroid stimulating hormone receptor | HEK293-CNG-TSHR cells (CNG channel as cAMP sensor), membrane potential dye, cAMP | P16473 | Potency, µM (top dose mostly 57.1 µM), inactives show at the highest dose activation, hits mostly activators | AID 926 | 73,000 tested, 0.48% active; active = well fitted activation curve of enough size with the parental cells flat; inconclusive = any curve in the parental cells; inactive = parental cells flat and receptor cells flat or falling; further: potency means the concentration at half of the fitted maximal effect; % of control where 0% means no effect; weak receptor curves with flat parental cells got no call and are not listed
Target sequence (P16473 whole entry, looked up): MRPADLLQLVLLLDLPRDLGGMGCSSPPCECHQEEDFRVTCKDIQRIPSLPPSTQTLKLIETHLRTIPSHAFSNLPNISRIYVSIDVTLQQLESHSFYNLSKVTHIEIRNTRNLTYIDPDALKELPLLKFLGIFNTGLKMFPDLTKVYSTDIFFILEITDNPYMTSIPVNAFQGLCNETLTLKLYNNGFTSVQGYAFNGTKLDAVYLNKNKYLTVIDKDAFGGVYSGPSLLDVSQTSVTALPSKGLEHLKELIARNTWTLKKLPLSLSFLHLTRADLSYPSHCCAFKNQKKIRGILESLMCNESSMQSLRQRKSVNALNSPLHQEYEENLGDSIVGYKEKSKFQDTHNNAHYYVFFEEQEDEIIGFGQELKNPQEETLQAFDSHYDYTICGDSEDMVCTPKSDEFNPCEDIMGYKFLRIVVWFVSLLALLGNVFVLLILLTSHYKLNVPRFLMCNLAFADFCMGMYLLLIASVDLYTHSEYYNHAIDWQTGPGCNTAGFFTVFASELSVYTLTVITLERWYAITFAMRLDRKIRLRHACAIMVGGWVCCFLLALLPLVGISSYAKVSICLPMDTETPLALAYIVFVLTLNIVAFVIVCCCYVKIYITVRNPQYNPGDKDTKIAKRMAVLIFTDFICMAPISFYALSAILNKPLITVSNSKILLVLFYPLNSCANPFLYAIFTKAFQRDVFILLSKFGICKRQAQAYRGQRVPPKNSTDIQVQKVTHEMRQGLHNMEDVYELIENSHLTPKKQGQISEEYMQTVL
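HEK 293 cells stably expressing TSHR and a cAMP-gated CNG channel; parental CNG-only cells as counterscreen. Cells preloaded 60 min with membrane potential dye plus 100 uM RO 20-1724, then compound 30 min; fluorescence read at 590 nm.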
Resorufin autofl – compounds fluorescent in resorufin spectral region; AID 588; Compound fluorescence, resorufin region 547/598 nm, buffer; active compounds read high; 59,000 tested, 0.04% active; max dye-equivalent concentration, M; active = above 10 nM dye equivalent; inconclusive = 1 to 10 nM; inactive = 1 nM or less; a few of its hits are not listed in these tables; further: highest value over a series up to 38 µM
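Intrinsic fluorescence profiled in the resorufin window (ex 547 nm, em 598 nm) after 15 min at room temperature in pH 8.0 Tris buffer (100 mM); responses normalized against a six-point resorufin standard series as dye-equivalent concentration.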
The depositor's hits bear a star; i = inactive; ? = inconclusive; · = no result given; & = joins results of further samples; [ ] = dose if it differs, or a comment. Some of the compounds tested; the hit share may differ from the screen's.

The line under a structure holds: A647 fluor | AID923 | A488 fluor | TSHR ag | Resorufin autofl
COC(=O)Cc1c(C)nc2nc(-c3ccccc3)[nH]n2c1=O
  1e-09 | 3.0% | i | 6% | i
CCOC(=O)CCNC(=O)c1ccccc1Br
  3.7e-08 | -1.2% | i | 3% | i
Cc1ccc(NC(=O)CN(C)C(=O)CN2C(=O)NC(C)(c3ccccc3)C2=O)cc1 (centres undefined)
  4.3e-08 | 0.5% | i | 0% | i
O=C(COC(=O)c1ccccc1O)Nc1ccc(OC(F)F)cc1
  2e-09 | -3.3% | i | -6% | i
COc1ccc(OC)c(CNC(=O)C2CCCN(c3nc4ccccc4o3)C2)c1 (centres undefined)
  1.9e-08 | -1.2% | i | ? | i
CC(C)NC(=O)N1CCCC2(CCN(C(=O)c3cccn3C)CC2)C1
  1e-09 | 2.2% | i | ? | i
O=C(CCCN1CCC(O)(c2cccc(C(F)(F)F)c2)CC1)c1ccc(F)cc1
  2.1e-09 | -2.5% | i | -38%[inhibitor] | i
Cc1ccc(-n2c(SCC3CCCCO3)nnc2-c2ccco2)cc1 (centres undefined)
  2.3e-08 | -2.4% | i | ? | i
COc1cc(C2N(c3cccc(Cl)c3)C(=O)C3CCCN32)cc(OC)c1OC (centres undefined)
  · | -0.9% | · | -4% | ·
COc1ccc(-c2cc3ccccc3n2CC(O)CNC(CO)(CO)CO)cc1 (centres undefined)
  3.1e-09 | -0.5% | i | -7% | i
CS(=O)(=O)N1CCC(C(=O)Nc2c(F)cccc2F)CC1
  2.1e-08 | 2.3% | i | 18% | i
N#C/C(=C(\O)c1ccco1)c1ccccn1
  4e-09 | 1.2% | i | -4% | i
CC(=O)Nc1cc2nn(-c3ccccc3)nc2cc1Cl
  3.3e-08 | 0.3% | i | -6% | i
O=S1CCCSC1c1cccnc1 (centres undefined)
  1e-09 | · | i | · | i
Cn1c(=O)n(C)c2cc(NC(=O)CSc3nnc(-c4ccccc4O)n3-c3ccccc3)ccc21
  2.4e-08 | -1.4% | i | · | i
CCC(=O)Nc1cccc(NC(=O)CSc2nnnn2C)c1
  7.4e-09 | 0.4% | i | -3% | i
CCC(NC(=O)c1ccccc1O)c1ccccc1 (centres undefined)
  1.9e-08 | 1.2% | i | ? | i
Cc1ccc(Cl)cc1N1CCN(S(=O)(=O)c2c(C)[nH]c(=O)[nH]c2=O)CC1
  2.5e-09 | 0.7% | i | -15% | i
O=C(c1ccncc1)N1CCC2(CC1)CN(Cc1cc(C(F)(F)F)cc(C(F)(F)F)c1)C2
  1e-09 | 0.9% | i | 12% | i
C[C@H](NC(=O)/C(C#N)=C/c1ccc(O)c(O)c1)c1ccccc1
  4.9e-08&2e-08 | -2.6% | i | ? | i
N=C(N)SCc1cccc2c(=O)cc(-c3ccccc3)oc12
  1e-09 | 1.9%[11.5 µM] | i | 2%[11.4 µM] | i
Cn1nc(CC(=O)Nc2ccc3c(c2)CCC3)c2ccccc2c1=O
  3.8e-08 | -0.1% | i | · | i
CSc1nnc(NC(=O)C2CCCCC2)s1
  · | 1.6% | · | 3% | ·
CCc1cc(C(=O)Cc2cnn(-c3ccccc3)c2)c(O)cc1O
  · | 4.2% | · | 17% | ·
CC1(C)C(c2cccs2)=NC(c2ccccc2)N1O (centres undefined)
  4.7e-08 | -0.2% | i | 8% | i
Cc1nc2cc(NC(=O)NCc3ccco3)ccc2o1
  3e-08 | -0.9% | i | 0% | i
Cc1ccc(C2C(C(=O)c3cc4ccccc4o3)=C(O)C(=O)N2CCN2CCOCC2)o1 (centres undefined)
  2.3e-08 | 3.3% | i | ? | i
O=c1c2cc(Cl)ccc2nc2ccc(N3CCCC3)nn12
  3.2e-08 | 8.8% | i | -3% | i
CC(=NCC1CCCO1)C1=C(O)CC(C)(C)CC1=O (centres undefined)
  · | 3.7% | · | 4% | ·
COc1ccc(C(CC(=O)N2CCOCC2)C(C)C)cc1 (centres undefined)
  2e-09 | · | i | · | i
COc1ccc(C(=O)C2CCN(C(=O)c3ccco3)CC2)cc1
  3.9e-08 | 1.5% | i | 3% | i
N#CC1=C2SCN(Cc3ccccc3)CN2C(=O)CC1c1cccs1 (centres undefined)
  · | 0.4% | · | 8% | ·
O=C(NCCCN1CCOCC1)c1coc2ccccc2c1=O
  6.3e-09 | -2.4% | i | -1% | i
CC1=C(C(=O)OC(C)C)C(/C=C/c2ccccc2)NC(=O)N1 (centres undefined)
  1.6e-08 | -0.9% | i | 6% | i
CS(=O)(=O)N1CCC(C(=O)NCC2CCCO2)CC1 (centres undefined)
  2.7e-08 | -0.3% | i | -5% | i
Cc1cc(NC(=O)CSc2nnc(C3CC3)n2C)no1
  2.5e-08 | -1.7% | i | 0% | i
CC(=O)c1cccc(NC(=O)C2CCN(S(=O)(=O)c3c(C)n[nH]c3C)CC2)c1
  3.9e-08 | 0.0% | i | 5% | i
COc1ccccc1S(=O)(=O)Cc1ccc(C(=O)NCc2cccnc2)o1
  · | 4.3% | · | 2% | ·
CC1Cn2c(nnc2C23CC4CC(CC(C4)C2)C3)S1 (centres undefined)
  1.7e-08 | -1.4% | i | 6% | i
CCNc1nc(NC(C)C)nc(N(C#N)C(C)C(=O)N(C)C)n1 (centres undefined)
  2.6e-08 | · | i | · | i
CCOc1ccc(C(=O)Nc2cccc(C)n2)cc1
  2.6e-08 | -1.1% | i | 2% | i
O=C(NC1(C(F)(F)F)NC(=O)N(Cc2ccco2)C1=O)c1cccs1 (centres undefined)
  1.8e-08 | -2.3% | i | 10% | i
O=C(Cn1c(NCCCO)nc2ccccc21)c1cccs1
  · | 2.3% | · | 1% | ·
NC(=O)NOC[C@@H]1NC(=O)NC1=O
  1e-09 | 1.0%[11.5 µM] | i | -1%[11.4 µM] | i
[O-][n+]1c(CN2CCCCC2)nc2cccc3c2c1-c1ccccc1-3
  5.2e-09 | 1.2%[11.5 µM] | i | 3%[11.4 µM] | i
COC(=O)c1ccccc1CCC(C)=O
  3.4e-09 | 0.6% | i | 6% | i
CCC(C(=O)NC1CCCC1)N(C(=O)Cn1nnc(-c2ccc(OC)c(OC)c2)n1)C1CCCCC1 (centres undefined)
  5.1e-08 | -1.6% | i | · | i
COc1ccccc1NC(=O)CSC1=NC(=O)C(NC(C)=O)C(=O)N1 (centres undefined)
  4.3e-08 | 0.4% | i | -2% | i
Cc1nc(SCC(=O)Nn2c(-c3ccccc3)nc3ccccc3c2=O)n[nH]1
  6.5e-09 | -1.2% | i | -15% | i
CCCCC(=O)Nc1ccc(NC(=O)CC)cc1OC
  6.2e-08 | -1.8% | i | 6% | i
CC1CCN(S(=O)(=O)c2ccc3c(c2)oc(=O)n3CC(=O)N2c3ccccc3CC2C)CC1 (centres undefined)
  · | 2.8% | · | -4% | ·
O=C(c1cc2ccccc2oc1=O)N1CCN(Cc2ccc3c(c2)OCO3)CC1
  1.5e-09 | 0.9% | i | -15% | i
COCCNC(=O)COC(=O)c1nsc(Cl)c1Cl
  5e-09 | -0.2% | i | -3% | i
COCCCn1c(Cc2csc(Nc3cccc(Cl)c3)n2)nnc1SCC(=O)OC
  1e-09 | 1.9% | i | 13% | i
Cn1c(NCc2cccc(Br)c2)nc2ccccc21
  2.8e-08 | -0.5% | i | 11% | i
COc1ncc2nc(-c3ccc(F)cc3)c(=O)n(Cc3cccs3)c2n1
  1e-09 | 6.5% | i | 10% | i
COc1ccc(N2CCN(C(=O)CN3C(=O)c4ccccc4S3(=O)=O)CC2)cc1
  1.4e-08 | 0.4% | i | -7% | i
COc1cccc(-c2nc(=S)c3c(n2CCCO)CCCC3)c1
  5.4e-09 | 0.8% | i | 14% | i
Cc1ccccc1NC(=O)c1c(-c2ccccc2)noc1C
  7.6e-09 | 1.7% | i | 5% | i
Cc1sc2nc(SCC(=O)NCc3ccco3)n(CCc3ccccc3)c(=O)c2c1C
  3.1e-08 | -0.3% | i | ? | i

The list continues:
The line under a structure holds: A647 fluor | AID923 | A488 fluor | TSHR ag | Resorufin autofl
CCc1ccc(N(CC(=O)Nc2ccc(OC)cc2OC)S(C)(=O)=O)cc1
  · | 1.1% | · | 16% | ·
COC(=O)[C@@]1(Cc2ccc(OC)cc2)[C@H]2c3cc(C(=O)N(C)C)n(Cc4ccsc4Br)c3C[C@H]2CN1C(=O)c1ccccc1
  · | 2.9% | · | ? | ·
CCCn1c(SCC(N)=O)nnc1C(C)C
  1e-08 | 0.7% | i | 2% | i
COc1cc(C(=O)Nc2nccs2)ccc1OCc1c(C)noc1C
  2.6e-08 | -0.3% | i | 1% | i
CCOC(=O)C1CCN(CC(O)COc2ccc(C(=O)CC)cc2)CC1 (centres undefined)
  1e-09 | -2.2% | i | 2% | i
COc1ccc(Oc2ncc3nc(-c4cccc(C#N)c4)c(=O)n(C)c3n2)cc1
  1e-09 | 2.3% | i | -1% | i
CC1=CC(=O)OC1Cc1ccncc1 (centres undefined)
  5.5e-09 | -2.9% | i | -6% | i
COC(=O)CC1SCCNC1=O (centres undefined)
  2.2e-08 | -0.4% | i | 2% | i
COc1ccc(NC(=O)CN2CCC(n3c(C)nc4cc(F)ccc43)CC2)c(OC)c1
  1e-09 | -3.0% | i | 11% | i
O=C(CC1NCCNC1=O)OCc1ccccc1 (centres undefined)
  3.7e-09 | -1.4% | i | 5% | i
O=C(CSC1=Nc2ccccc2C2=NC(c3ccccc3)C(=O)N12)NCC1CCCO1 (centres undefined)
  1e-09 | 5.6% | i | 30% | i
CCCCNC(=O)NCC(=O)Nc1ccc(F)c(F)c1
  2.4e-08 | -1.1% | i | 0% | i
COc1cc(C(=O)NCCc2cn3ccccc3n2)cc(OC)c1OC
  · | 2.7% | · | -8% | ·
CCn1c(SCC(=O)c2ccc(Cl)cc2)nnc1-c1ccoc1C
  1.4e-09 | 0.9% | i | ? | i
COc1ccc(CCNC(=O)C2CCN(Cc3nc(-c4ccc(Cl)cc4)oc3C)CC2)cc1OC
  2.3e-08 | 1.0% | i | 7% | i
N#CC1=C2SCN(Cc3ccco3)CN2C(=O)CC1c1cccc2ccccc12 (centres undefined)
  3.3e-09 | 0.3% | i | 8% | i
Nc1ncnc2c1ncn2[C@@H]1O[C@H](CO)[C@@H](O)[C@H]1O
  1.9e-08 | -0.8% | i | · | i
O=C(Nc1nc(-c2ccccc2)cs1)C1CCCCN1S(=O)(=O)c1ccccc1 (centres undefined)
  1e-09 | 0.6% | i | 15% | i
O=C(O)c1ccc(OC2CSC2)cc1
  · | 1.8% | · | 11% | ·
COc1cc(NC(=O)CSc2nnnn2-c2ccccc2)cc(OC)c1OC
  5.1e-09 | -1.8% | i | 4% | i
NS(=O)(=O)c1ccc(N=Nc2nc3[nH]cnc(=S)c3[nH]2)cc1
  1e-09 | -4.9%[11.5 µM] | i | -1%[11.4 µM] | i
Cc1ccc2c(c1)N(CC(=O)O)C(=O)CO2
  8.9e-09 | -0.5% | i | ? | i

By substructure: the compounds so far with a COOH group (two)
The line under a structure holds: A647 fluor | AID923 | A488 fluor | TSHR ag | Resorufin autofl
O=C(O)c1ccc(OC2CSC2)cc1
  · | 1.8% | · | 11% | ·
Cc1ccc2c(c1)N(CC(=O)O)C(=O)CO2
  8.9e-09 | -0.5% | i | ? | i

Random excerpt: 3 records from the list
The line under a structure holds: A647 fluor | AID923 | A488 fluor | TSHR ag | Resorufin autofl
COc1ccc(CCNC(=O)C2CCN(Cc3nc(-c4ccc(Cl)cc4)oc3C)CC2)cc1OC
  2.3e-08 | 1.0% | i | 7% | i
COc1cc(NC(=O)CSc2nnnn2-c2ccccc2)cc(OC)c1OC
  5.1e-09 | -1.8% | i | 4% | i
CCCCNC(=O)NCC(=O)Nc1ccc(F)c(F)c1
  2.4e-08 | -1.1% | i | 0% | i
